PINK1 modulator = modulators of PINK1 expression; PINK1 immunofluorescence, high-content cytometry, 24 h; Potency, µM (highest dose often 76.6 µM), for inactives: at the highest dose activation (PINK1 increase), most hits filed as activators; hit rate 0.2% among 410,000; active = well fitted activation curve with a large enough effect; inconclusive = small, poorly fitted or top-dose-only effect; inactive = flat fitted curve, though single readings scatter; cell line not stated here;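 note: potency is the fitted concentration of half-maximal effect; % of control where 0% means no effect; nearly all actives have a fitted effect of over 65% in size; a mitochondrial uncoupler was the plate control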
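Stable cell line, 250 cells/well, 12 h attachment; compounds pinned at 5 concentrations, 24 h; CCCP control. Fixed with nuclear dye, primary antibodies 12 h at 10 degrees C, secondary plus cell stain; laser-scanning cytometer read.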
TRPML1 ag = human mucolipin-1 channel agonism; TRPML1-expressing cells, Ca2+ dye fluorescence, FDSS; host cell line not named in the record; reference of the full effect not given here; Q9GZU1; activation, % (concentration not given with the values); hit rate 0.12% among 410,000; in the data active = activation above about 50%; inconclusive = about 30% to 50%; inactive = below about 30%; note: 0% is about no effect; the text of the record puts the active cut at 80%
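TRPML1-DL cells, Tet-induced overnight (~16 h, 37 degrees C), loaded 45-90 min at room temperature with Ca8 no-wash calcium dye plus quencher. FDSS fluorescence: 10 s baseline, compound pin-transfer, 110 s agonist read, then EC80 54-4 (4uM final) and 110 s antagonist read.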
Six1-Eya2 blk = blocks human Six1 binding to Eya2; Q15475+O00167; AlphaScreen GST-Six1/His-Eya2 binding, biochemical; active compounds read low; control for the full effect not named in the record; activity change, % (no concentration beside the values); hit rate 0.56% among 360,000; AID 651725; in the data active = activity change below about -65%; inconclusive = about -30% to -65%; inactive = above about -30%; note: % is set by controls: 0 for no effect and ±100 for the full control effect
Target sequence (O00167 whole entry, looked up): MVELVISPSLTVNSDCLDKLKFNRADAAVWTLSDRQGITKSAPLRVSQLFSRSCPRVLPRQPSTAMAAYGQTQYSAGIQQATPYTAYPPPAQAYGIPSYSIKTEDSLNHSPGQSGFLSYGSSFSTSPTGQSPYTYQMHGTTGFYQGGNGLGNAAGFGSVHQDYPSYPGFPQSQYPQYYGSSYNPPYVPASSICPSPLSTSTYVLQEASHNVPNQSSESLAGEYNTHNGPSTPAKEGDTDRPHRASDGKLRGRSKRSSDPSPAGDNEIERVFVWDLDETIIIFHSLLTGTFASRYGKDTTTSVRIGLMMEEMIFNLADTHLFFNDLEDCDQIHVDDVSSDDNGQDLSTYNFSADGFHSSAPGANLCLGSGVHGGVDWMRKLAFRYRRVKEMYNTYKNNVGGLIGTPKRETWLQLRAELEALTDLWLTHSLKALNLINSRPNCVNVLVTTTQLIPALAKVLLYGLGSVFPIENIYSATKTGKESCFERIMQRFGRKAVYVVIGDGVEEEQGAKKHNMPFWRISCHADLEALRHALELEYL
Target sequence (Q15475 whole entry, looked up): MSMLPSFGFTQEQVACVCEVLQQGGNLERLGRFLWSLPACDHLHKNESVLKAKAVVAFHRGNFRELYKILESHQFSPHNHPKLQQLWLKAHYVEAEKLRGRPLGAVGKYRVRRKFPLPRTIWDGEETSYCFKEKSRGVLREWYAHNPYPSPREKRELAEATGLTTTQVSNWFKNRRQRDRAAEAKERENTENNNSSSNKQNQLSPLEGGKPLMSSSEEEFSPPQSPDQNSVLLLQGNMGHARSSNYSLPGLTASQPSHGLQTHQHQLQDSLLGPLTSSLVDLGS
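Compounds are tested against tagged Six1 and Eya2 proteins bridged by glutathione donor and nickel acceptor beads; after a one-hour incubation at 37 °C without light, AlphaScreen emission is recorded.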
TRPML1 blocker = human mucolipin-1 channel inhibition; Q9GZU1; TRPML1-inducible cells, Ca2+ dye fluorescence, FDSS; active compounds read low; inhibition of EC80 agonist-evoked calcium signal; activity change, negative = inhibition, % (test concentration not listed); hit rate 0.02% among 390,000; AID 624415; in the data active means activity change below about -50%; inconclusive means about -30% to -50%; inactive means above about -30%;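 note: stimulus is agonist 54-4 at its EC80 concentration; % is set by controls: 0 for no effect and ±100 for the full control effect; compound concentration not given in the record; the text of the record puts the active cut at -80%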
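TRPML1-DL cells, Tet-induced overnight (~16 h, 37 °C) at 1,500 cells/well, were loaded with Ca8 no-wash dye plus quencher for 45-90 min at room temperature. Compounds were pinned during FDSS kinetic reading; agonist 54-4 at EC80 (4 uM final) then added.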
D2 PAM = human D2 receptor positive allosteric modulation | potentiation, % (no concentration beside the values) | DiscoveRx D2 beta-arrestin cells, luminescence, 90 min; 100% = 57 uM dopamine signal | hit rate 0.23% among 360,000; active = potentiation of 50% or more; inconclusive = 30% to 50%; inactive = 30% or less;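 note: compound concentration not given in the record; tested on top of an EC20 dose of dopamine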
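PathHunter D2 cells, attached overnight at 37 deg C, received compound in DMSO plus dopamine at EC20 (50 nM final) for 90 min at 37 deg C. Beta-arrestin recruitment was read as luminescence after 1 h with detection reagent at ambient temperature.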
D2 agonist = activates the human D2 dopamine receptor | AID 624465 | activation, % (test concentration not listed) | hit rate 0.084% among 360,000 | DiscoveRx PathHunter D2 beta-arrestin, luminescence, 90 min; 100% = 57 uM dopamine signal | P14416; in the data active = activation above about 40%; inconclusive = about 15% to 40%; inactive = below about 15%; note: compound concentration not given in the record; the text of the record calls up to 30% inactive
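Agonist mode: compounds alone added to overnight-plated D2 PathHunter cells for 90 min at 37 C, with 57 uM final dopamine (EC100) defining full response. Beta-arrestin recruitment detected by chemiluminescent reagent, read after 1 h at ambient temperature.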
* marks the source's active call; other numbers are inactive results; ? = inconclusive; · = no result given; & = joins results of further samples; [ ] = dose if it differs, or a comment.

#	Structure	PINK1 modulator	TRPML1 ag	Six1-Eya2 blk	TRPML1 blocker	D2 PAM	D2 agonist
1	O=C(CSc1ccc(-c2ccc(F)cc2)nn1)NC1CCCCC1	3.2%	-0.7	-10	-12	-5	-2.9
2	CCC(=O)Nc1ccc(S(=O)(=O)NCc2ccc3c(c2)CCN3C(=O)c2ccc(C)cc2)cc1	0.1%	1.5	·	0	·	·
3	COc1ccc(S(=O)(=O)N2CCN(Cc3cccc(OC)c3OC)CC2)cc1	-0.7%	·	7	·	-26	-0.6
4	CCCCCCC(=O)Nc1nc(C)c(-c2csc(Nc3ccc(Cl)cc3)n2)s1	3.7%	0.3	-1	-11	-10	-4.8
5	CCCN(CCC)C(=O)CSc1nc2n[nH]c(C)c2c(=N)n1-c1ccc(OC)cc1	0.6%	1.4	-3	34	-10	-2.7
6	Cn1cccc1C(=O)NC(=O)COC(=O)c1cc(Cl)ccc1[N+](=O)[O-]	3.5%	-0.2	-2	-5	12	7.2
7	Cc1cc2nc(CS(=O)(=O)c3ccccc3)cc(=O)n2[nH]1	0.0%	-0.8	5	-9	-1	1.9
8	CC(C)n1c(O)c(N=NC(=O)CNC(=O)CCc2ccccc2)c2ccccc21	0.0%	-0.7	-1	27	-19	0.8
9	Cc1cc(C)cc(-n2c3ccc(NC(=O)Cc4cccc5ccccc45)cc3c(=O)n2C)c1	0.2%	-0.7	-6	·	-2	-1.9
10	OCCN(CCO)CC(O)CN1c2ccccc2Sc2ccccc21 (configuration not stated)	0.4%	0.2	-8	-11	-11	-10

Retrieved by structure from above, 2 records:
#	Structure	PINK1 modulator	TRPML1 ag	Six1-Eya2 blk	TRPML1 blocker	D2 PAM	D2 agonist
3	COc1ccc(S(=O)(=O)N2CCN(Cc3cccc(OC)c3OC)CC2)cc1	-0.7%	·	7	·	-26	-0.6
6	Cn1cccc1C(=O)NC(=O)COC(=O)c1cc(Cl)ccc1[N+](=O)[O-]	3.5%	-0.2	-2	-5	12	7.2

Going on with the list.
#	Structure	PINK1 modulator	TRPML1 ag	Six1-Eya2 blk	TRPML1 blocker	D2 PAM	D2 agonist
11	Cc1nc(N)sc1C(=O)Nc1ccccc1	-0.9%	-0.1	8	-5	-4	-0.7
12	COc1ccc(-n2c(C)nn(C)c2=O)cc1	-2.9%	1.5	6	-17	-3	0.7
13	COCCn1c(C)cc(C(=O)COC(=O)CCS(=O)(=O)c2ccc(C)cc2)c1C	-2.1%	1.6	0	-1	-5	-1.3
14	CCN(CC)c1nn2c(=O)c(C(=O)NCc3ccc(OC)cc3OC)cnc2s1	0.5%	-0.4	·	-9	·	·
15	CCC(=O)N1CCN=C1SCc1ccccc1Cl	1.7%	-0.4	0	-6	-9	-4.5
16	CCN(CC)C(=O)CC(c1ccc(OC)cc1)c1c(OC)cc(OC)c2ccc(=O)oc12 (configuration not stated)	2.9%	1.4&-0.5	?	-21&-11	-12	-1.5
17	COC(=O)c1sc2nc(CSc3nc4ccc(C)cc4[nH]3)[nH]c(=O)c2c1C	15%	1.1	8	-1	6	0.6
18	CCN1CCN(CCCNC(=O)c2cc3c(s2)-c2ccccc2OC3)CC1	0.2%&2.8%	0.8&2.2	1	8&-15	-32	-6.8
19	O=C1/C(=C/C=C/c2ccco2)SC(=S)N1c1ccc(O)cc1	5.9%	·	?	·	-1	6.2
20	Cc1ccc2cc3c(=O)n(C)cc(C=O)c3nc2c1	6.4%	·	3	·	-7	0.6
21	CN(CC(=O)N1CCN(c2ccccn2)CC1)S(=O)(=O)c1ccc(Cl)cc1	-0.6%	1.5	-4	12	-2	-3.5
22	CN1/C(=c2/s/c(=C3/C(=O)N(c4ccccc4)NC3=Nc3ccccc3)n(C)c2=O)C(C)(C)c2ccccc21	-1.7%	-1.3	?	-16	-13	-7.1
23	Cc1ccc(NC(=O)c2cnc(SCC(=O)N3CCCc4ccccc43)n(C)c2=O)cc1	19%	1.5	·	38	·	·
24	O=C(COC(=O)CCCC1=NS(=O)(=O)c2ccccc2N1)Nc1ccc(Br)cc1	-0.8%&-1.2%	0.0&1.2	6	-9&5	-17	4.7
25	COc1ccc(-n2c(C)c(C(=O)O)c3cc(OC)c4ccccc4c32)cc1	-2.5%	1.2	-27	19	-1	1.2
26	CCOC(=O)C1CCN(S(=O)(=O)NC[C@H]2O[C@@H](n3cnc4c(N)ncnc43)[C@H](O)[C@@H]2O)C1 (some centres not stated)	-1.2%	-0.4	6	-5	·	-1.1
27	COc1ccccc1NC(=O)c1cc(S(=O)(=O)N2CCC3(CC2)OCCO3)ccc1F	?	0.0	3	0	-3	-3.0
28	COC(=O)c1ccc(N2CCN(CC(=O)c3ccc(C)cc3)CC2)c([N+](=O)[O-])c1	0.6%	0.2	-16	16	-15	-4.3
29	Cc1cccc(C)c1NC(=O)CNC(=O)c1c(C)nn(-c2ccccc2)c1C	5.5%	0.1	1	11	5	1.2
30	O=C(c1coc(=O)c(Br)c1)N1CCOCC1	-1.9%	-0.2	-6	13	2	0.8
31	Clc1ccc2c(c1)Nc1ccccc1CC2	6.2%	-0.7	6	-1	-7	2.8
32	O=C(NCc1ccco1)c1nn2c(C(F)(F)F)cc(-c3cccs3)nc2c1Cl	·	4.0	2	4	4	-0.7
33	CC1CCCCC12NC(=O)N(CC(=O)OCc1ccc(Br)cc1)C2=O (configuration not stated)	-1.1%	-0.2	1	-4	-5	-2.8
34	Cc1cc(C)n2nc(SCCOc3ccccc3F)nc2n1	0.3%	1.4	?	-11	18	11
35	CCN(C(=O)CN1C(=O)NC2(CCC(C)CC2)C1=O)C1CCCCC1 (configuration not stated)	0.3%	-1.0	1	40	-4	-5.0
36	CN1CCc2c(sc(NC(=O)C3CCCCC3)c2C(N)=O)C1	0.0%	0.0	5	-1	-7	-3.8
37	CCCC(=O)NC(=S)N1CCN(c2ccc([N+](=O)[O-])cc2)CC1	?	0.3	2	-14	-14	-0.1
38	COc1cccc(-c2[nH]nc3c2C(c2ccsc2)C(C#N)=C(N)O3)c1 (configuration not stated)	4.9%	3.5	-5	20	-7	-2.2
39	CCn1c(C(=O)N2CCC(C(=O)NCCc3ccc(OC)cc3OC)CC2)cc2sccc21	0.9%	2.2	·	-3	·	·
40	CCOC(=O)c1sc(NC(=O)c2cccc(S(=O)(=O)N3c4ccccc4CC3C)c2)cc1C (configuration not stated)	5.7%	-0.7	8	2	-9	-0.3
41	CCOC(=O)C1CCN(C(=O)C2CCN(c3nnc(-n4cccc4)s3)CC2)CC1	-1.6%	-1.1	1	-2	-10	3.5
42	CC(C)CNC(=O)NC(=O)COC(=O)c1ccccc1Sc1ccc(C(F)(F)F)cc1[N+](=O)[O-]	?	2.8	-2	-23	-9	0.5
43	COc1ccc(/C=C\c2onc(C)c2S(=O)(=O)N2CCC(C(=O)Nc3ccc(C)cc3C)CC2)cc1	0.6%	0.1	·	12	·	·
44	COc1cc(C2CC(=O)c3c([nH]c(C(=O)OC4CCCCC4)c3C)C2)cc(OC)c1OC (configuration not stated)	7.6%	1.8	·	8	·	·
45	Cc1ccc2[nH]c(=O)c(CN(CCc3ccccc3)Cc3nnnn3CC3CCCO3)cc2c1 (configuration not stated)	1.6%[38.3 µM]	-0.6	-4	-9	-14	-1.8
46	O=C(NNC(=O)c1cc(-c2ccccc2)n(-c2ccccc2)n1)c1cccc([N+](=O)[O-])c1	-1.5%	3.6	-11	7	18	-1.0
47	CCCNC(=O)c1ccc(N2CCC3(CC2)CC(c2ccccc2)=NO3)c(NC(=O)Cc2ccc(F)cc2)c1	0.9%	-0.6	1	17	17	-0.2
48	Cc1ccc(C)c(N2CCN(S(=O)(=O)c3cc(C(=O)Nc4ccccc4C(F)(F)F)ccc3F)CC2)c1	-0.6%	0.9	·	16	·	·
49	O=c1[nH][nH]c2cc([N+](=O)[O-])ccc12	-1.8%	0.4	?	-12	-6	0.3
50	Cc1cccc(-n2c(SCC(=O)N3CCCC3)nnc2-c2ccccn2)c1C	-2.1%	0.8	-21	-2	-11	-2.1
51	Cc1ccc(/C=N\NC(=O)c2ccc3c(c2)OCO3)o1	-1.0%	0.4	-1	-10	-16	-0.5
52	CCOC(=O)Cn1c2c(c(=N)c3c1CCC3)CCC2	-0.9%	-0.3	9	4	-23	-2.3
53	COc1ccc(N2CC(NC(=O)C3CCCC3)CC2=O)cc1 (configuration not stated)	0.3%	-0.4	·	-5	·	·
54	COc1ccc(N2CCN(C(=O)C3CCN(S(=O)(=O)N4CCOCC4)CC3)CC2)cc1	1.9%	-0.9	0	3	-3	-0.3
55	COc1ccc(S(=O)(=O)N2CCCC(C(=O)O)C2)cc1 (configuration not stated)	-0.2%	-0.3	-1	11	0	-1.3
56	CCC(C)(C(=O)NC1CCCC1)N(C(=O)Cc1cccs1)c1c(C)n(C)n(-c2ccccc2)c1=O (configuration not stated)	0.5%	0.4	-2	-16	4	-13
57	Cc1cccc(NC(=O)CCCN2C(=O)C(c3ccccc3)Oc3cccnc32)c1C (configuration not stated)	2.8%	1.5	-14	-2	-35	1.3
58	CCN(CC)c1ccc(/C=C(\C#N)C(=O)c2ccc(Br)cc2)cc1	?	79*	4	-5	0	-3.6
59	O=C(Cc1n[nH]c(=O)c2ccccc12)NC(c1ccccc1)c1ccccc1	9.0%	1.7	0	8	3	-6.5
60	COc1ccc(C2(C)NC(=O)N(CC3CCCCC3)C2=O)cc1 (configuration not stated)	1.8%	1.1	2	17	-3	0.8

Going on with the list:
#	Structure	PINK1 modulator	TRPML1 ag	Six1-Eya2 blk	TRPML1 blocker	D2 PAM	D2 agonist
61	CCCCOC(=O)n1c(=O)oc2ccc(S(=O)(=O)N3CCCCC3)cc21	1.2%	0.9	2	1	12	-4.7
62	COc1cc(OC)cc(-c2cc3nc(C)c(CCC(=O)NCCc4cccc(C)c4)c(C)n3n2)c1	0.2%	0.2	·	4	·	·
63	O=C(Nc1ccc(Oc2ccccc2)cc1)C1CCCO1 (configuration not stated)	-5.1%[38.3 µM]	0.1	-2	6	-8	0.1
64	Cc1ccc(Cl)cc1N1CCN(S(=O)(=O)c2c(C(=O)N3CCOCC3)c(C)n(C)c2C)CC1	2.6%	0.1	-9	-17	-13	2.0
65	Cc1occc1C(=O)N1CCCC(Nc2ccc(F)c(F)c2)C1 (configuration not stated)	1.6%	1.7	-1	15	-19	-1.1
66	Cc1cc(C)c(C#N)c(N2CCC(C(N)=O)CC2)n1	1.1%	-0.5	-7	22	-5	-5.6
67	COc1ccc(N2CCN(C(=O)c3ccccc3NS(=O)(=O)c3ccc(C)cc3)CC2)cc1	-0.7%	1.6	-15	3	-24	-4.5
68	C=CCNC(=S)Nc1ccc(N2CCOCC2)c(S(=O)(=O)Nc2ccccc2Cl)c1	1.4%	-0.2	-23	35	-2	0.4
69	CCOC(=O)c1ccc(NC2=CC(c3ccc(OCC)cc3)N(c3ccc(C(=O)OCC)cc3)C2=O)cc1 (configuration not stated)	0.0%	1.3	·	15	·	·
70	COc1ccc(S(=O)(=O)N(Cc2ccccc2)Cc2nc3ccccc3c(=O)[nH]2)cc1	-3.3%	1.2	0	6	-3	0.8
71	CC(CCc1ccccc1)NC(=O)COC(=O)c1cccnc1Cl (configuration not stated)	1.1%	-0.5	-14	24	-8	9.1
